# Assay outcomes as filed in PubChem BioAssay.
# EBI2 antag: EBI2 receptor antagonists, beta-arrestin recruitment, primary screen, cell-based, luminescence, 7a,25-OHC stimulation, uHTS | 360,000 tested, 0.81% active | inhibition, % at 5 µM | 7a,25-OHC stimulated; in the data active means inhibition above about 38%;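 further: enzyme fragment complementation signal reports receptor beta-arrestin coupling in cells; 0% = agonist plus DMSO wells and 100% = wells without agonist; some results beyond the cut were filed as inactive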
# Jurkat NFkB inh: inhibitors of induced NF-kB luciferase reporter, primary screen, TCR NF-kB activation inhibitor project, cell-based, luminescence, uHTS | 330,000 tested, 0.53% active | Jurkat, PMA/ionomycin-induced NF-kB luciferase reporter | AID 435003, 2010 | inhibition, % at 4 µM; in the data active means inhibition above about 50%
# Gli-Sufu block: Gli-Sufu pathway antagonists, primary screen, luciferase luminescence, Sufu-KO-LIGHT cells, uHTS | Sufu-KO-LIGHT fibroblasts, Gli luciferase reporter luminescence | 340,000 tested, 0.74% active | AID 588413, 2011 | inhibition, % at 5 µM;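 active means inhibition above about 55%, limit read from the data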;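 further: 0% = DMSO-treated cells and 100% = wells with medium but no cells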
# Mdm2 MdmX PPI: inhibitors of human Mdm2-MdmX association, primary screen, cell-based, luminescence, split luciferase, SaOS-2, uHTS; SaOS-2 split-luciferase Mdm2/MdmX complementation; inhibition, % at 8 µM; 330,000 tested, 3% active;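 active means inhibition of at least 50% at 8 µM in the primary screen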
# Target sequence (O15151 whole entry, looked up): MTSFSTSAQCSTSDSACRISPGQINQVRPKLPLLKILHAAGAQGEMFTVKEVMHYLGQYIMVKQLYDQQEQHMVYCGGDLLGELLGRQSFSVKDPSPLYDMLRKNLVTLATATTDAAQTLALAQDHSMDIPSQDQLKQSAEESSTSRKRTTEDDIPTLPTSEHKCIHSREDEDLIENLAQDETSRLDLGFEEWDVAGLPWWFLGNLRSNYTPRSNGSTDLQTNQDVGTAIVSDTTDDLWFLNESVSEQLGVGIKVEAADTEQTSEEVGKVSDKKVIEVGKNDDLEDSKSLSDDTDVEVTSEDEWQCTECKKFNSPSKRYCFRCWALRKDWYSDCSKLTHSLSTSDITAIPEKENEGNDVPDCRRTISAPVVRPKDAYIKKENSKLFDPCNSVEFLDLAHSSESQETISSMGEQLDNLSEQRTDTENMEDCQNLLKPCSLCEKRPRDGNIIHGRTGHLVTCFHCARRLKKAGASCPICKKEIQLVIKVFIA
# Target sequence (Q00987 whole entry, looked up): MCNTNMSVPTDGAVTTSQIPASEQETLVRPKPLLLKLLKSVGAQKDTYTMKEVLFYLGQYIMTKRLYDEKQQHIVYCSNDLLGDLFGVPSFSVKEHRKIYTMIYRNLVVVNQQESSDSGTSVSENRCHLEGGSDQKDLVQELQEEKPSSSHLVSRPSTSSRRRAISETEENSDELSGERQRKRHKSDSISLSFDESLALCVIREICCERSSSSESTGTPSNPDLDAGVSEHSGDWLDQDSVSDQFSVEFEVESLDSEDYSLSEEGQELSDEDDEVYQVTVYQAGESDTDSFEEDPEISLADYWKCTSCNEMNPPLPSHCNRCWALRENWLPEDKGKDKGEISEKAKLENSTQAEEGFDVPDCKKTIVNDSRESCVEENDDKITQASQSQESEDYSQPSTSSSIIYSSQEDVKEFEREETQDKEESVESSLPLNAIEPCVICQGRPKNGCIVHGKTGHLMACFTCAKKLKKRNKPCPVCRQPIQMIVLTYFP
# UPR CHOP act: activators of apoptotic CHOP UPR arm, primary screen, cell-based, CHO-CHOP luciferase reporter, luminescence, uHTS | UPR activation; percent of tunicamycin response over DMSO baseline | activation, % at 10 µM | 330,000 tested, 0.34% active | AID 449763, 2010;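 active means at 10 µM dose, activation of 40% or more, normalized to positive control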;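 further: 100% = tunicamycin at 10 µg/mL and 0% = DMSO alone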
#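 System: CHO-CHOP luciferase reporter cell line | Buffer or medium: F12 medium containing 10% fetal bovine serum | Doses: One dose, 10 µM in 0.5% DMSO | Times: 6 h compound exposure at 37 °C after overnight seeding | Signal: Luciferase luminescence | Read-out: % activation vs tunicamycin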
# XBP1 UPR activ: activators of adaptive XBP1 UPR arm, primary screen, cell-based, CHO-XBP1 luciferase reporter, luminescence, uHTS | IRE1-XBP1 UPR activation; percent of tunicamycin response, DMSO as zero | activation, % at 20 µM | 330,000 tested, 0.33% active | AID 463104, 2010;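 active means versus positive control, 20 µM dose yields 30% or more activation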;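 further: 100% = tunicamycin at 10 µg/mL and 0% = DMSO only wells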
#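 Material: CHO cell line with stable XBP1 luciferase reporter; buffer or medium: F12 medium containing 10% fetal bovine serum; compound: single point, 20 µM final compound, 1% DMSO; incubation: 6 h treatment, 37 °C; measured by: glow luminescence from Steady-Glo reagent; evaluation: activation, % of tunicamycin; control set: tunicamycin high, DMSO low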
# 697 NFkB inh: inhibitors of PMA/ionomycin-induced NF-kB reporter, 697 cells, primary screen, B-cell NF-kB inhibitor project, cell-based, luminescence, uHTS. 330,000 tested, 0.33% active. inhibition, % at 4 µM. AID 435022, 2010. 697 B-cell NF-kB luciferase reporter, 16 h; in the data active means inhibition above about 35%
# Numbers without * were called inactive; / = not tested or not shown. These rows are one share of the data. The share of hits here may be higher or lower than overall.
# Each structure is followed by: 697 NFkB inh	Jurkat NFkB inh	EBI2 antag	Mdm2 MdmX PPI	UPR CHOP act	Gli-Sufu block	XBP1 UPR activ
NNC(=O)c1ccccc1-n1cccc1
 : 2	4	-14	-20	-1.1	-5	-2
CCC1Nc2ncnc(N3CCN(c4ccccc4)CC3)c2N(Cc2ccc(C)cc2)C1=O (stereo not given)
 : -5	11	45*	5	2.1	1	4
COC(=O)C1=CN(c2cccc(C(F)(F)F)c2)C=C(C(=O)OC)C1c1ccc(O)c(OC)c1
 : -16	13	6	27	2.0	-3	-1
COc1ccc(N/N=C(/C(N)=O)C2=NC(C)(C)Cc3ccccc32)cc1
 : 6	-3	5	49	0.2	17	4
COC(=O)c1cc(-c2cc(OC)ccc2OC)nc2c1c(=O)n(C)c(=O)n2Cc1ccccc1
 : -17	-22	67*	5	2.2	35	4
Clc1ccc2oc3c(Cl)ncnc3c2c1
 : 9	3	16	71*	0.9	6	1
CCN(CC)C(=O)C1=C(C)Nc2nnnn2C1c1cccnc1 (stereo not given)
 : -3	-1	-6	21	-5.5	4	-3
O=C(CSc1ccc(-c2ccccn2)nn1)Nc1nccs1
 : -1	2	0	12	2.2	-5	-2
CCOC(=O)c1sc(S(C)(=O)=O)c2c1CC(C)(C)C/C2=N/O
 : 1	4	-4	22	5.2	-2	0
Cc1ccc(CN2C(=O)C(CC(C)C)Nc3ncnc(N4CCN(c5ccccn5)CC4)c32)cc1 (stereo not given)
 : 2	14	18	3	1.3	20	-1
COc1cccc(OC)c1C1=NC(C)(C)CO1
 : 5	1	-1	16	-2.4	2	-4
Cc1nn(-c2ccccc2)c2[nH]c(=O)c(CNCc3ccc4c(c3)OCO4)cc12
 : -5	3	-10	12	-0.9	6	2
Cc1cc(N/N=C/c2ccc(F)cc2)nc(-n2nc(C)cc2C)n1
 : -13	4	14	13	73*	4	17
Cc1ccc(CNC(=O)C(C)OC(=O)c2cccs2)cc1 (stereo not given)
 : 4	4	-5	4	-1.8	0	0
Cc1cc(C)c(NC(=O)C2CCCN2CCO)c(C)c1 (stereo not given)
 : 16	-1	-2	14	-0.2	0	-2
COc1ccc(/C=N/NC(=O)c2cccc([N+](=O)[O-])c2)cc1OC
 : 14	-6	-10	16	1.7	-15	3
COc1ccccc1NC(=O)COC(=O)/C=C/c1ccc2c(c1)OCO2
 : 10	-25	-1	4	1.8	-22	3
COc1ccc2cc(C#N)c(N3CCOCC3)nc2c1
 : 5	0	-5	14	-1.0	-10	-4
CCOc1ccccc1OCCNC1CCCC1
 : 11	-7	-7	25	0.9	5	0
CCCc1cc(=O)[nH]c(SCC(=O)NCC2COc3ccccc3O2)n1 (stereo not given)
 : 24	17	-6	-19	1.0	3	2
O=C(CSc1ccc2c(c1)OCCO2)NCC1CCCO1 (stereo not given)
 : -45	-20	2	-6	-1.9	4	3
Cc1cccc(/C=N/NC(=O)c2ccccc2OCc2cccc(Br)c2)n1
 : -3	0	19	-8	0.5	13	4
CN(Cc1c(F)cccc1Cl)C(=O)c1cnc2ccccc2n1
 : -14	-1	9	-12	0.0	-7	7
COc1ccccc1-c1ccc(=O)n(CC(=O)NCc2ccco2)n1
 : -14	10	-14	-16	0.8	23	-2
O=C(NC1CC1)c1cc(F)c(F)cc1Cl
 : 7	-7	0	5	-0.7	-3	0
CCCc1cc(=O)oc2c(C)c(OCc3nn[nH]n3)ccc12
 : 24	-19	-9	22	0.1	2	-2
O=C(N/N=C/c1ccncc1)c1ccc(NS(=O)(=O)c2cccs2)cc1
 : 11	-12	-2	-6	1.0	2	-1
O=C(N/N=C/c1ccccn1)c1cc([N+](=O)[O-])cc([N+](=O)[O-])c1
 : -2	14	37	12	45*	24	4
CCN1CCCC1CNS(=O)(=O)c1c(C)cc(C)cc1C (stereo not given)
 : -4	-13	-14	-16	-0.8	13	5
O=C(Oc1oc(-c2ccco2)nc1C=Nc1ccccc1)c1ccco1
 : -26	-27	0	-3	3.5	6	-2
C/C(=N\NC(=O)c1ccc(NS(=O)(=O)c2cccs2)cc1)c1ccccc1
 : 10	-4	4	-38	-1.7	-5	-1
CCn1cnnc1SCC(=O)NCC1COc2ccccc2O1 (stereo not given)
 : -1	3	-11	6	1.7	6	0
Cc1cc(C)c(NC(=O)C2CCCN2C(=O)NC2CCCCC2)c(C)c1 (stereo not given)
 : 10	-9	-5	12	3.0	-1	-3
ClC(Cl)(c1nnnn1-c1ccccc1)c1nnnn1-c1ccccc1
 : /	/	-51	/	/	13	/
O=c1c2cccc(Cl)c2nc2n1Cc1ccccc1-2
 : -104	-69	-2	-23	6.0	-11	1
CN(C)c1nc(=Nc2cccc(Cl)c2)ss1
 : /	/	2	/	/	5	/
CN1CCN(C(=O)CNc2ccc(C(F)(F)F)cc2[N+](=O)[O-])CC1
 : -10	4	3	25	-0.7	1	-2
Cc1cc(Cl)cc2sc(NC(=O)C3CC3)nc12
 : 6	-12	-1	26	0.3	-5	3
O=C(Nc1ccccc1N1CCCCC1)c1ncoc1-c1cccc(F)c1
 : 11	-7	-36	-6	-1.5	2	-1
Cc1[nH]c2ccccc2c1/C=N/NC(=O)c1ccc(N)cc1
 : 11	10	8	-3	0.5	-3	1
O=C(NC(=S)Nc1nc(-c2ccccc2)cs1)c1ccco1
 : -18	-19	2	-30	0.9	8	0
CCC(=O)NC(=S)NNC(=O)COc1ccc(Br)cc1
 : -20	-3	-19	-17	0.3	-4	1
CC12CCC(C/C1=N\N=C1\NC(=O)/C(=C\c3ccc(Cl)cc3)S1)C2(C)C (stereo not given)
 : -40	-8	23	27	6.0	-7	12
NC(=O)c1ccc(-c2c(-c3ccccc3)sc3ccccc23)cc1
 : 5	0	-10	6	0.9	19	-2
Cc1cc(C(=O)N(C)Cc2c(F)cccc2Cl)c2ccccc2n1
 : -7	8	16	-11	0.9	-23	-6
COc1ccccc1C(CC(=O)Nc1ccccc1C)c1ccc(OC(C)C)cc1 (stereo not given)
 : 1	7	-1	19	13	17	-1
CC(=O)NC(=S)NNC(=O)COc1ccc(Br)cc1
 : /	/	3	/	/	-29	/
CCN(CC)C(=O)COC(=O)c1cc(-c2ccc(OC)cc2)nc2ccccc12
 : -9	-7	4	-6	2.3	-15	-3
CCSc1nnc2c(n1)[nH]c1c(C)cccc12
 : -128	-46	6	-36	2.3	-59	6
FC(F)(F)c1ccc(Cl)c(NC(=S)NC2CC2)c1
 : -3	4	-12	-26	0.2	4	0

# More structures follow.
# Each structure is followed by: 697 NFkB inh	Jurkat NFkB inh	EBI2 antag	Mdm2 MdmX PPI	UPR CHOP act	Gli-Sufu block	XBP1 UPR activ
COc1ccc(OCC(=O)NNC(=S)NC(=O)C2CC2)cc1
 : -22	-2	4	16	0.4	-23	-2
CC(=O)Nc1cccc(/C(C)=N/NC(=O)c2ccc(NS(=O)(=O)c3cccs3)cc2)c1
 : 15	0	-7	-11	-2.3	-24	-1
COc1ccc(-c2ccc(-c3nnc(-c4cc(OC)ccc4OC)o3)cc2)cc1
 : -9	6	-3	8	1.0	6	0
CCN1CCCC1CNS(=O)(=O)c1cccc(C(F)(F)F)c1 (stereo not given)
 : -6	1	-2	8	-0.8	8	-1
O=C1CCC/C(=N/NC(=O)c2ccc(NS(=O)(=O)c3cccs3)cc2)C1
 : 14	-1	6	5	0.5	1	-2
COc1ccccc1N1C(=O)C2C(C(=O)c3ccccc3)=NN(c3ccc(Br)cc3)C2C1=O (stereo not given)
 : 0	3	-9	11	0.9	7	1
CCCc1cc(-c2[nH]ncc2-c2ccc3c(c2)OCCCO3)c(O)cc1O
 : 9	-1	17	21	-0.3	-3	-1
Cc1ccc(SCC(=O)OCC(=O)NC(C)c2ccc(F)cc2)cc1 (stereo not given)
 : 18	8	14	19	2.1	3	0
CCCOc1ccc(S(=O)(=O)N2CCCC2)cc1[N+](=O)[O-]
 : -2	5	0	-12	0.1	3	-2
COc1ccc(/C(C)=N/NC(=O)c2ccncc2)cc1
 : -6	-2	3	13	-2.0	-5	-4
Cn1c(-c2ccc(C#N)cc2)c(C#Cc2ccccc2)c2ccccc21
 : /	/	10	/	/	-3	/
O=C(CSc1ccc2c(c1)OCCO2)Nc1ccc(Cl)cn1
 : 19	-12	-12	11	-0.9	0	4
COc1cccc2cc(C(=O)CS(=O)(=O)c3ccc(Cl)cc3)c(=O)oc12
 : 16	3	4	11	1.7	-4	-3
FC(F)(F)c1nnc(-c2ccccc2)nc1Sc1ccc(Cl)cc1
 : 15	-12	33	86*	84*	1	-6
CCOC(=O)C1CCCN(c2nc3ccccc3nc2C(C#N)C(=O)OCC)C1 (stereo not given)
 : -92	-11	3	-9	2.2	8	2

# For convenience, some entries already given.
# Each structure is followed by: 697 NFkB inh	Jurkat NFkB inh	EBI2 antag	Mdm2 MdmX PPI	UPR CHOP act	Gli-Sufu block	XBP1 UPR activ
NNC(=O)c1ccccc1-n1cccc1
 : 2	4	-14	-20	-1.1	-5	-2
CCC1Nc2ncnc(N3CCN(c4ccccc4)CC3)c2N(Cc2ccc(C)cc2)C1=O (stereo not given)
 : -5	11	45*	5	2.1	1	4
COC(=O)C1=CN(c2cccc(C(F)(F)F)c2)C=C(C(=O)OC)C1c1ccc(O)c(OC)c1
 : -16	13	6	27	2.0	-3	-1
COc1ccc(N/N=C(/C(N)=O)C2=NC(C)(C)Cc3ccccc32)cc1
 : 6	-3	5	49	0.2	17	4
COC(=O)c1cc(-c2cc(OC)ccc2OC)nc2c1c(=O)n(C)c(=O)n2Cc1ccccc1
 : -17	-22	67*	5	2.2	35	4
Clc1ccc2oc3c(Cl)ncnc3c2c1
 : 9	3	16	71*	0.9	6	1
CCN(CC)C(=O)C1=C(C)Nc2nnnn2C1c1cccnc1 (stereo not given)
 : -3	-1	-6	21	-5.5	4	-3
O=C(CSc1ccc(-c2ccccn2)nn1)Nc1nccs1
 : -1	2	0	12	2.2	-5	-2
CCOC(=O)c1sc(S(C)(=O)=O)c2c1CC(C)(C)C/C2=N/O
 : 1	4	-4	22	5.2	-2	0
Cc1ccc(CN2C(=O)C(CC(C)C)Nc3ncnc(N4CCN(c5ccccn5)CC4)c32)cc1 (stereo not given)
 : 2	14	18	3	1.3	20	-1
COc1cccc(OC)c1C1=NC(C)(C)CO1
 : 5	1	-1	16	-2.4	2	-4
Cc1nn(-c2ccccc2)c2[nH]c(=O)c(CNCc3ccc4c(c3)OCO4)cc12
 : -5	3	-10	12	-0.9	6	2
Cc1cc(N/N=C/c2ccc(F)cc2)nc(-n2nc(C)cc2C)n1
 : -13	4	14	13	73*	4	17
Cc1ccc(CNC(=O)C(C)OC(=O)c2cccs2)cc1 (stereo not given)
 : 4	4	-5	4	-1.8	0	0
Cc1cc(C)c(NC(=O)C2CCCN2CCO)c(C)c1 (stereo not given)
 : 16	-1	-2	14	-0.2	0	-2

# Three compounds already listed, ordered by molar mass, high to low:
# Each structure is followed by: 697 NFkB inh	Jurkat NFkB inh	EBI2 antag	Mdm2 MdmX PPI	UPR CHOP act	Gli-Sufu block	XBP1 UPR activ
Cc1ccc(CN2C(=O)C(CC(C)C)Nc3ncnc(N4CCN(c5ccccn5)CC4)c32)cc1 (stereo not given)
 : 2	14	18	3	1.3	20	-1
CCOC(=O)c1sc(S(C)(=O)=O)c2c1CC(C)(C)C/C2=N/O
 : 1	4	-4	22	5.2	-2	0
COc1cccc(OC)c1C1=NC(C)(C)CO1
 : 5	1	-1	16	-2.4	2	-4
